Ba CapD inh = CapD enzyme inhibition; purified CapD enzyme, fluorescence intensity read-out; hits give low values; some hits fall short of the stated cut; z-score (test concentration not listed); 140,000 compounds, 0.23% hits; AID 492967;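 active means z-score under -4 in either of two replicates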;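 further: stock transfer was 100 nL into about 40 µL; score is relative to mean and spread of the plate; one replicate is shown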
AID504770 = growth inhibitors of E. coli YBA685 in a screen for V. cholerae RctB (chromosome II replication) inhibitors; E. coli YBA685 rctB-dependent plasmid, OD600 growth, 3 h; hits give low values; z-score (concentration not given with the values); 130,000 compounds, 0.27% hits; AID 504770;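 active means z-score under -2 on both plates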;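 further: wells of about 30 µL received 100 nL stock; score is relative to mean and SD of the test wells; the first replicate is given; strong numbers were not always called active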
An asterisk follows results filed as active; . = not tested or not shown. Only part of the results is shown (hit frequency here may not be typical).

Start of the data: the first 6 compounds as a preview:
SMILES	Ba CapD inh	AID504770
CCOC(=O)C1=C(C)N=c2s/c(=C\c3cc(Br)ccc3O)c(=O)n2C1c1ccc(OC)c(OC)c1 (centres undefined)	-0.47	.
O=C(O)c1cc(Cl)nnc1Cl	-0.29	-0.35
N#CC1=C(N)n2c(s/c(=C\c3cc(Br)ccc3F)c2=O)=C(C#N)C1c1cc(Br)ccc1F (centres undefined)	-0.12	.
COc1ccc(CNc2nc(SCC(=O)N3CCC(C)CC3)nc3ccccc23)cc1	-0.4	.
O=C(OCC(=O)N(C1CCCCC1)C1CCCCC1)c1ccncc1	.	-0.3
COc1ccc(CNc2ncnc3c2cnn3-c2ccccc2)cc1	0.26	-0.4

The listing, repeating the preview:
SMILES	Ba CapD inh	AID504770
CCOC(=O)C1=C(C)N=c2s/c(=C\c3cc(Br)ccc3O)c(=O)n2C1c1ccc(OC)c(OC)c1 (centres undefined)	-0.47	.
O=C(O)c1cc(Cl)nnc1Cl	-0.29	-0.35
N#CC1=C(N)n2c(s/c(=C\c3cc(Br)ccc3F)c2=O)=C(C#N)C1c1cc(Br)ccc1F (centres undefined)	-0.12	.
COc1ccc(CNc2nc(SCC(=O)N3CCC(C)CC3)nc3ccccc23)cc1	-0.4	.
O=C(OCC(=O)N(C1CCCCC1)C1CCCCC1)c1ccncc1	.	-0.3
COc1ccc(CNc2ncnc3c2cnn3-c2ccccc2)cc1	0.26	-0.4
O=C1C(=Cc2ccc(N3CCOCC3)o2)C(=O)c2ccccc21	-0.16	1.4
CC(/C=C1\SC(=S)N(CCC(=O)Nc2ccc(O)c(C(=O)O)c2)C1=O)=C\c1ccccc1	0.31	-0.7
CN(C)c1ccc(N2CC(=O)SC2=NC#N)cc1	-0.21	-0.4
COC(=O)c1sc2ccccc2c1S(=O)(=O)N1CCN(c2ccccc2)CC1	-0.34	0.3
Cc1cc(=O)n2nc(N(C)CC(=O)N3CCCCC3)sc2n1	-1.3	-0.3
Cc1ccc(C=Nc2ccc(C(N)=O)cc2)s1	-0.19	2.3
Cc1nn(CC(=O)Nc2ccc(S(N)(=O)=O)cc2)c(=O)c2ccccc12	-0.15	.
c1ccc(Oc2nc(N3CCOCC3)nc(N3CCOCC3)n2)cc1	-0.28	-0.8
CC(C)C(c1nnnn1C1CCCC1)N(Cc1ccc(Cl)cc1)CC1CCCO1 (centres undefined)	.	-0.55
CC(C)=C1C2CCC1C(C(=O)N1CCN(c3ccccc3Cl)CC1)C2C(=O)O (centres undefined)	0.04	-0.55
CC(C)(C)/C(O)=C/c1nc2ccccc2[nH]c1=O	0.73	0.55
Clc1ccc2sc(Sc3ccccc3)nc2c1	-0.43	-1.2
COc1cc2c(cc1OC)C(c1cccs1)N(C(=O)c1cnn(-c3ccccc3)n1)CC2 (centres undefined)	.	0.1
O=C1NC(=S)N/C1=C/c1cc2ccccc2nc1N1CCCCC1	-1	-0.7
O=C(CCC(=O)c1cccs1)OCc1ccccc1	0.38	0.5
CCOC(=O)CSc1ncc(OC)c(Oc2ccc(OC)cc2)n1	0.07	.
CS(=O)(=O)c1ccc(CN(C(=O)c2ccc(Cl)nc2)c2ccccn2)cc1	-0.47	.
O=C1C(N2CCCCC2)=C(n2nnc3ccccc32)C(=O)C(N2CCCCC2)=C1n1nnc2ccccc21	0.015	-0.3
CCOC(=O)c1ccc(N=c2sc(C(=O)OC)cc(=O)n2CCCN2CCOCC2)cc1	-0.52	0.65
CCSc1nc2sc3c(c2c(=O)n1CC)CCc1ccccc1-3	-0.45	1.6
O=C(O)c1ccccc1OCc1ccc2ccccc2n1	-0.13	0.1
CC(C)c1ccc(NC(=O)Cn2nnc(C(=O)NCc3ccccc3)c2N)cc1	.	0.95
CN(C)c1ccc(/C=C/C=C2/C(=O)NC(=O)N(c3ccccc3)C2=O)cc1	2.6	2.3
CC(NC(=O)CSc1nnc(-c2ccccc2)n1C)c1ccccc1 (centres undefined)	.	0.2
CCOc1ccc(S(=O)(=O)NCc2ccncc2)cc1	0.88	-0.1
COc1cc(C(=O)O)c([N+](=O)[O-])c(OC)c1OC	-0.55	.
Clc1ccc(Nc2nc(NCc3ccco3)c3ccccc3n2)cc1	45	.
COc1ccc(Cc2nn3c(Cc4ccccc4)nnc3s2)cc1	79	0.2
COc1cccc(N2C(=O)c3ccncc3C2=O)c1	-0.4	-0.6
CC(C)(C)OC(=O)NCCCOC(=O)N1CCN(c2cccc3[nH]ccc23)CC1	1.5	.
COc1ccc(NC(=O)c2c(Cl)nc3ccccn23)cc1	-0.29	-1.4
Cc1ccc2c(c1)c(C)cc(=O)n2CCC(=O)O	.	-0.8
c1ccc(-c2nnc(CN3CCc4sccc4C3c3cccs3)o2)cc1 (centres undefined)	.	-0.25
O=C(Nc1ccccc1SCc1cccc(C(F)(F)F)c1)c1c(F)cccc1Cl	-0.47	.
CCOc1cc(-c2nc3sc4c(c3c(=O)[nH]2)CCCC4)ccc1OCCOCCOc1ccc(C)c(C)c1	0.48	.
CCn1nc(C)c(CNC(=O)NCc2ccccc2)c1C	0.23	-1.1
Cc1nc(-n2cccc2)sc1C(=O)NCCCc1ccccc1	0.03	0.2
CCC(=O)Nc1c(-c2ccccc2)nc2ccc(C)cn12	36	.
COc1cc(/C=N\n2cn[nH]c2=S)cc(OC)c1OC	-2	-0.6
CSc1nnnn1-c1ccccc1	0.91	0.05
Cc1cccc(N(C)C(=O)Cn2ncc3c2-c2ccccc2OC3)c1	-0.4	-0.55
Cc1cc(C)c2c(c1)CC(C)(C)c1nc3cc(Cl)c(Cl)cc3nc1-2	1.3	.
O=C(CN1C(=O)C2C3C=CC(C3)C2C1=O)Nc1nccs1 (centres undefined)	-0.27	.
C=CCNS(=O)(=O)c1cccc2nonc12	-0.28	-0.1
S=c1cc(Nc2ccc(Br)cc2)[nH]cn1	-0.22	-1.1
O=C(COC(=O)Cn1nnc(-c2ccccc2)n1)Nc1cc(F)ccc1F	.	0.1
CCN1C(=O)CS/C1=N\N1CCOCC1	0.39	-0.1
Cc1cc(OCC(=O)O)c(C(C)C)cc1Br	.	-0.15
O=C(O)c1ccccc1C(=O)Nc1ccc(/C=C/c2ccccc2)cc1	0.21	1.1
CN1CCCc2cc(/C=C3\CC/C(=C/c4ccc5c(c4)N(C)CCC5)C3=O)ccc21	0.82	-0.05
CCOC(=O)N1CCC(N2C(=O)c3ccc(C(=O)Nc4ccc(OC)c(Cl)c4)cc3C2=O)CC1	-0.19	1.6
CCN(CCOC(=O)NCCc1ccncc1)c1ccc(N=Nc2ccc([N+](=O)[O-])cc2)cc1	-0.73	.
N#C/C(=C1\CCCCCN1)c1nnc2n1CCCCC2	0.4	.
CC(=O)Nc1nonc1-c1nc2ccccc2n1Cc1ccc(Cl)cc1Cl	.	0

Other records follow.
SMILES	Ba CapD inh	AID504770
O=C(Nc1cccc(C(F)(F)F)c1)c1cc(-c2ccccc2)n[nH]1	0.35	0.1
CC(=O)NS(=O)(=O)c1ccc(NC(=O)C2CCCN2C(=O)OC(C)(C)C)cc1 (centres undefined)	.	2.1
C=C(C)COc1ccc2c3c(c(=O)oc2c1)CCC3	4.3	0.35
Cc1cccc(NC(=O)NCC(=O)NC2CC2)c1	.	0.55
O=C(O)c1ccc(CS(=O)(=O)c2ccc(C(F)(F)F)cn2)o1	-0.18	-0.4
CCCN(CC1CC1)S(=O)(=O)c1cc(Cl)sc1Cl	-0.72	.
O=C(Sc1ccc(C(F)(F)F)cn1)c1csc(C2COc3ccccc3O2)n1 (centres undefined)	-0.025	-1.2
Cc1ccccc1OCCN1C(=O)NC2(CCC(C)CC2)C1=O (centres undefined)	.	-0.75
CC(C)N(Cc1ccccc1)C(=O)c1c(F)cccc1Cl	0.9	1.3
O=C(NCCc1ccccc1)c1nn2cccnc2c1Cl	0.65	0.05
CCCC1=C(C(=O)OCC)C(c2ccc(OC)c(CSc3ccccn3)c2)C(C#N)=C(N)O1 (centres undefined)	3.4	.
O=C(Nc1nccs1)c1cc2c(cc1Cl)N1CCCCCC1=NS2(=O)=O	.	-0.55
CC(=O)Nc1c(C(C)C)cccc1C(C)C	0.21	0.2
CCc1cc2c(=O)c(-c3ccc4c(c3)OCCO4)c(C)oc2cc1O	.	0.15
O=C(c1ccc(CSc2ccc(Cl)cc2)o1)N1CCOCC1	0.07	-0.7
O=C(NCCc1ccccc1)c1ccc2c(c1)OCCCO2	.	0.45
N#CCC1=NC(=O)/C(=C/c2ccc(F)cc2)S1	.	-0.25
O=c1[nH]c(SCc2ccc(Cl)cc2)nc2c1CSC2	-0.36	-0.65
CCCN(CCC)C(=O)Cn1ccc(=N)c2ccccc21	0.075	-0.1
O=C(Nc1nc2cc3c(cc2s1)OCO3)c1ccc2ncsc2c1	.	0.6
CN(C)/C=C(\C#N)c1nn2c(C(F)(F)F)cc(C(F)(F)F)nc2c1C#N	-1	.
O=c1[nH]c(=O)n(CCC2=CCCCC2)c(O)c1/C=C1/C=CC=N1	.	0.6
O=C(Nc1ccc(N2CCC(n3cccc3)CC2)cc1)c1cccs1	-0.36	1.9
C=C(C)CSc1nnc(-c2cccc(S(=O)(=O)N3CCOCC3)c2)n1-c1cccc(Cl)c1	.	-0.15
O=C(O)c1cccc(NC(=S)NC(=O)c2cccnc2)c1	0.32	-1.1
N#Cc1ccccc1OCC(=O)C12CC3CC(CC(C3)C1)C2	.	-0.1
Cc1sc(NC(=O)c2ccco2)c(CN2CCN(c3ccccn3)CC2)c1C	-0.96	2.9
Cc1ccc(C(=O)NC(=S)NCc2ccco2)cc1	-0.39	-0.9
COCCNCc1c(C(=O)O)c(C)n(Cc2ccccc2C)c1C	-0.61	0.95
COC(=O)CNc1nc(Cl)nc(N2CCC(C)CC2)n1	-0.17	-1.8
Fc1ccc(NC(=S)NCCCN2CCCCCC2)cc1Cl	0.42	-0.35
c1cnc(Sc2ccc3ccccc3c2)nc1	.	0.15
COc1ccc2oc(C(=O)OC(C)C(=O)N3C(C)CCCC3C)c(C)c2c1 (centres undefined)	.	-0.45
CCCOC(=O)c1ccc(NC=O)cc1	-0.44	1.3
CCOC(=O)C1=C(N)OC2=C(C(=O)CCC2)C1c1ccccc1F (centres undefined)	0.02	.
COc1ccc2[nH]cc(CCNC(=O)Cn3cnc4ccccc4c3=O)c2c1	0.43	-0.9
CCn1cc(CN(Cc2ccccc2)C(=S)Nc2ccc(Cl)cc2OC)c2ccccc21	-0.53	0.15
Cc1ccc(CNC(=O)C2CC3CCCN3C23C(=O)N(C)c2ccccc23)cc1 (centres undefined)	0.35	0.85
CCOc1ccc(S(=O)(=O)NCCO)cc1	-0.43	1.1
O=C(O)C1CNC(c2ccccc2)S1 (centres undefined)	0.12	-0.05
O=C(COC(=O)c1ccc(Br)o1)Nc1cc(C(F)(F)F)ccc1Cl	-0.49	-0.25
COc1ccc(-c2nc(SCC(=O)N3CCCc4ccccc43)[nH]c(=O)c2C#N)cc1	.	0.25
O=C1NC(c2ccc(Br)cc2)Oc2ccccc21 (centres undefined)	-0.36	0.3
O=C(CCCc1nnc2n3nc(-c4ccccc4)nc3c3ccccc3n12)NCc1ccco1	0.015	0.7
Cc1nc2ccc(NC(=O)NCCCO)cc2s1	.	-0.7
Cc1c(Cl)cccc1NC(=O)CSc1nc(=O)n(CCN2CCOCC2)c2c1CCCC2	.	-0.35
CCc1ccc(NC(=O)CCCn2c(=O)c3cccn3c3cccnc32)cc1	1.8	0.2
Cc1nc2sc(C(=O)N(Cc3ccco3)Cc3cccs3)c(C)c2c(=O)[nH]1	.	1.1
CCOC(=O)C1CCN(C(=O)c2ccccc2NC(=O)c2cccc(F)c2)CC1	-0.31	1.9
CS(=O)(=O)c1ccc2c(c1)CCN2	1.1	.
CCOC(=O)c1csc(NC(C)=O)n1	0.14	2.1
COc1ccc(C2=NN3C(C2)c2cc(OC)ccc2OC3c2cc(OC)c(OC)c(OC)c2)cc1 (centres undefined)	-0.53	.
Cc1ccc(CSCC2COC(c3cccs3)=N2)cc1 (centres undefined)	-0.73	0.2
COc1ccc(NC(=O)CC(c2ccco2)c2ccccc2OC)cc1 (centres undefined)	-0.9	-0.65
FC(F)(F)c1cccc(NC(=S)Nc2cc(-c3cccs3)[nH]n2)c1	0.8	-0.6
O=C1CC(c2ccccc2)CC(O)=C1C=Nc1ccc(Cl)cc1 (centres undefined)	0.45	0.85
N#Cc1ccccc1S(=O)(=O)N1CCN(Cc2c(O)ccc3ccccc23)CC1	.	0.7
Cc1cccc(C)c1NC(=O)Cn1c(=O)n(CCCC(=O)NCc2ccco2)c(=O)c2sccc21	-0.05	0.25
CC(Oc1ccc(Br)cc1)C(N)=O (centres undefined)	0.38	1.6
CCOc1ncccc1C(=O)NCc1ccc(F)cc1	.	-1.1

The listing continues.
SMILES	Ba CapD inh	AID504770
CC1CCN(Cn2cnc3ccccc3c2=O)CC1	.	0.1
CCOc1ccc(C(C)(C)C(=O)NN2C(=O)/C(=C/c3ccccn3)N=C2c2ccccc2)cc1	0.3	0
CCN1C(=O)c2c(C)nc3ccccc3c2C1=O	0.35	-0.35
C(=Nc1ccc(-c2nnc3n2CCCCC3)cc1)c1ccsc1	-0.01	-0.8
CC1CCc2sc(C(=O)NCCCn3ccnc3)cc2C1 (centres undefined)	.	1.6
O=C(Nc1nc(-c2cccnc2)cs1)C1CCCC1	.	2
O=C1c2ccccc2S(=O)(=O)N1CC(O)Cn1ccc2ccccc21 (centres undefined)	0.11	0.2
COc1ccc2c(C)nc(/N=C(\N)NC(C)=O)nc2c1	42	-0.65

Screens (PubChem BioAssay)
